VDR inh: vitamin D3 receptor (human) inhibition | P11473 | VDR-SRC2-3 peptide fluorescence polarization, 2 h | Potency, µM, for the others: max response, negative = inhibition, actives largely listed as inhibitors | 0.93% of 400,000 active | AID 504847; active = well fitted inhibition curve with a large enough effect; inconclusive = small, poorly fitted or top-dose-only effect, or another doubt; inactive = no such curve, though single readings can be large or run the other way; note: series mostly up to about 120 µM
Target sequence (P11473 whole entry, looked up): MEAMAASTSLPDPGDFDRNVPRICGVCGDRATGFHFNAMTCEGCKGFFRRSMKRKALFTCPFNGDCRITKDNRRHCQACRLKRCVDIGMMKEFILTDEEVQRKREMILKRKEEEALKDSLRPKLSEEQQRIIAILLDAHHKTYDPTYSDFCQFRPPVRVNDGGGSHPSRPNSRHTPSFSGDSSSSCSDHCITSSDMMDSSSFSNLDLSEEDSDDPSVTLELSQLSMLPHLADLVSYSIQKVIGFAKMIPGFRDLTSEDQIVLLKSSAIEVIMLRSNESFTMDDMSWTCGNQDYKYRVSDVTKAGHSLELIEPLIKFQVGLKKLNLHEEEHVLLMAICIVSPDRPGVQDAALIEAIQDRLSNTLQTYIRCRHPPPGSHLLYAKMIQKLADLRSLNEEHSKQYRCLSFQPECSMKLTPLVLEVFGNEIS
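After 23 nl compound addition and a short centrifugation, plates sat for 2 hours at ambient temperature; polarization of fluorescence then indicated loss of VDR binding to peptide SRC2-3.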
* = called active by the depositor; ? = inconclusive; & = joins results of further samples; [ ] = dose if it differs, or a comment. % is set by controls: 0 for no effect and ±100 for the full control effect; potency is the fitted concentration of half-maximal effect. These rows are one share of the data. The share of hits here may be higher or lower than overall.

SMILES | VDR inh
CC(=O)Nc1ccc(NCC(=O)c2ccccc2)cc1 | 24%
COc1ccccc1NC(=O)/C=C\c1ccco1 | ?
CC(C)CN(C1CCS(=O)(=O)C1)S(=O)(=O)c1ccc(C(C)C)cc1 (stereo not given) | 1%
Cc1ccc(NC(=O)CNCc2cccs2)c(Br)c1 | 11%
CCSc1ccc([C@@H]2[C@H]3C(=O)N(CC)C(=O)[C@H]3[C@]3(C(=O)OC)CCCCN23)cc1OC | 3%
O=C(/C=C/c1ccc2c(c1)OCO2)N1CCN(c2n[nH]c(=O)[nH]c2=O)CC1 | 10%
CN1CCCN(C(=O)c2cccc3ccccc23)CC1 | -8%
COCCCNC(=O)c1cnc2sc(N3CCCCC3)nn2c1=O | 3%
COc1cc2c(cc1OC)C1=C(C#N)CC/C(=N\S(=O)(=O)c3ccccc3)N1CC2 | 0%
Cc1cccc(N2CCN(C(=O)CC(NC(=O)c3ccccc3)c3ccccc3)CC2C)c1 (stereo not given) | -17%
Cc1cccc(OCCOC(=O)C2CCN(S(=O)(=O)c3cccs3)CC2)c1 | -13%
Cn1c(=O)[nH]c2cc(-c3noc(-c4cccc(Cl)c4)n3)ccc21 | -3%
O=C1CN(C(=O)c2ccccc2)C(c2ccccc2)c2cc(Cl)ccc2N1 (stereo not given) | 5%
C/C(=N\NC(=S)NC1CCCCC1)c1ccccc1 | -14%
CN(Cc1cn(-c2ccccc2)nc1-c1ccc(Cl)cc1)C(=O)CCC(=O)O | 3%
CCOc1ccccc1NS(=O)(=O)c1c[nH]c(C(=O)OC)c1 | 4%
Cc1nnc(NC(=O)c2ccccc2)s1 | -16%
O=C(NCc1ccncc1)c1cc(C(=O)C2CCCCC2)c[nH]1 | 0%
CCCCC(=O)OCC(=O)c1[nH]c(C)c(C(C)=O)c1C | 6%
CC(=O)CSc1nnc(-c2cnccn2)n1-c1ccccc1 | 6%
CC(C)=CCCC1(C)C=Cc2c(c(C)cc3c2[nH]c2ccccc23)O1 (stereo not given) | 2%
COc1cccc(Cn2c(=O)c(-c3cc(F)cc(F)c3)nc3cnc(N4CCN(C)CC4)nc32)c1 | 7%
O=C(Nc1ccc2c(c1)CCC2)c1cccc(F)c1 | -2%
S=c1[nH]nc(-c2ccccn2)n1/N=C/c1ccccc1 | 8%
COc1cccc(Nc2nc3ccccc3n3cnnc23)c1 | -8%
Cc1ccc(-n2nnnc2CNC(=O)c2ccccc2S(C)(=O)=O)cc1C | 11%
COc1ccc(S(=O)(=O)Nc2cccc3c2O[C@H](CN(C)CC2CC2)[C@@H](C)CN([C@H](C)CO)C3=O)cc1 | 3%
Cc1nc(-c2ccccc2)nc2n[nH]c(N)c12 | 12%
O=[N+]([O-])c1cccc2cnccc12 | 26%
COC(=O)[C@H](Cc1ccc(O)cc1)NCCCn1cnc(C(=O)Nc2ccc(C)c(C)c2)n1 | 17%
O=C(NN1C(=O)c2ccccc2NC1c1ccc([N+](=O)[O-])o1)c1ccc([N+](=O)[O-])cc1 (stereo not given) | -2%
CCCCn1c(N)c(N(CC)C(=O)CCc2ccccc2)c(=O)[nH]c1=O | -10%
N/C(=N\OC(=O)CN1C(=O)c2ccccc2C1=O)c1ccc(Br)cc1 | -7%
CC1CN(C(=S)SCCN2C(=O)CCC2=O)CC(C)O1 (stereo not given) | 7%
COc1cc(OC)cc(C(=O)NCCOc2ccccc2)c1 | 2%
COc1ccccc1NC(=S)N1CCCc2ccccc21 | 3%
CCn1ncc(/C=C/C(=O)Nc2c(C)nn(CC)c2C)c1C | -5%
Cc1cc(Nc2ccc(O)cc2)ccc1N | ?
FC(F)(F)c1ccccc1NC(=S)Nn1cnnc1 | ?
O=C(Nc1ccc(NC(=O)c2cc3ccccc3o2)cc1)c1ccco1 | 16%
Cc1ccc(C)c(Cn2nnc(C(=O)NCc3ccc(Cl)cc3Cl)c2N)c1 | -29%
COc1ccccc1C(=O)NCCn1ccc2ccccc21 | 2%
COc1ccccc1C(=O)NC(=S)Nc1cccnc1Cl | -8%
CCOC(=O)NNC(=O)C12CC3CC(CC(C3)C1)C2 | -8%
CCC(C)[C@H](NC(=O)N1CCN(c2cccc(C(F)(F)F)c2)CC1)C(=O)OC (stereo not given in full) | -11%
O=C(/C=C/c1ccc([N+](=O)[O-])cc1)NCCSc1ccccc1 | -4%
O=C(c1cc(-c2cccs2)nc2ccccc12)N1CCN(c2ccccc2)CC1 | -13%
O=C(CC1(O)C(=O)N(Cc2ccccc2Cl)c2ccccc21)c1ccco1 (stereo not given) | 2%
CN(C(=O)CSc1nnc(C2CC2)n1C)C1CCCc2ccccc21 (stereo not given) | -7%
CC1CN(c2ccccc2)C(=O)CS1 (stereo not given) | 0%
O=C(O)c1ccccc1S(=O)(=O)CC(=O)N1CCCCC1 | 5%
O=S1(=O)NC(CC2=CCCCC2)C2CCCCC2O1 (stereo not given) | -7%
COc1ccc(/C=C2\SC(=O)N(CCC(=O)N(C)C3CCS(=O)(=O)C3)C2=O)cc1 (stereo not given) | 0%
O=C(/C=C/c1ccco1)Oc1cc(Br)cc(/C=N/NC(=O)c2ccccc2O)c1 | -12%
CCOC(=O)c1c(NC(=O)C2CC(Cl)=CCC2C(=O)O)sc2c1CCCCC2 (stereo not given) | -20%
COc1ccccc1OC(=O)c1ccc(SC)cc1OC | 20%
CC1CCN(S(=O)(=O)c2cc(C(=O)Nc3ccccn3)ccc2Br)CC1 | -16%
Cc1cc(-c2nnc(CCC(=O)N(C)CCc3ccccc3)o2)no1 | 5%
CCN(C(=O)COC(=O)c1cc(S(=O)(=O)N2CCOCC2)c(Cl)cc1Cl)C1CCS(=O)(=O)C1 (stereo not given) | -12%
Cc1ccc(S(=O)(=O)c2nnn3c2nc(NC2CCCCC2)c2sccc23)cc1 | -8%

5 entries out of the list above, ordered by the value under VDR inh, falling:
canonical_smiles | VDR inh
Cc1cc(-c2nnc(CCC(=O)N(C)CCc3ccccc3)o2)no1 | 5%
O=C(CC1(O)C(=O)N(Cc2ccccc2Cl)c2ccccc21)c1ccco1 (stereo not given) | 2%
O=S1(=O)NC(CC2=CCCCC2)C2CCCCC2O1 (stereo not given) | -7%
O=C(/C=C/c1ccco1)Oc1cc(Br)cc(/C=N/NC(=O)c2ccccc2O)c1 | -12%
CC1CCN(S(=O)(=O)c2cc(C(=O)Nc3ccccn3)ccc2Br)CC1 | -16%

Among those listed so far, these have a COOH group.
SMILES | VDR inh
CN(Cc1cn(-c2ccccc2)nc1-c1ccc(Cl)cc1)C(=O)CCC(=O)O | 3%
O=C(O)c1ccccc1S(=O)(=O)CC(=O)N1CCCCC1 | 5%
CCOC(=O)c1c(NC(=O)C2CC(Cl)=CCC2C(=O)O)sc2c1CCCCC2 (stereo not given) | -20%

(next part)
SMILES | VDR inh
COc1ccc(C(CNC(=O)c2cccc3cccnc23)N(C)C)cc1 (stereo not given) | -3%
CCOc1ccc(CNC(=O)CN2C(=O)CSc3ccc(S(=O)(=O)N4CCOCC4)cc32)cc1OC | -11%&10%
CC(=O)c1cccc(NC(=O)CSc2nnc(-c3ccc(S(=O)(=O)N4CCCC4)cc3)o2)c1 | 4%
COc1ccc(C2CC(=O)c3cc(-c4nc(-c5ccc(Cl)cc5)c(C)s4)c(=O)[nH]c3C2)cc1 (stereo not given) | -6%
Cc1ccc(NC(=O)CC2SCCNC2=O)cc1[N+](=O)[O-] (stereo not given) | 5%
CC(C)NC(=O)N(C)C[C@H]1Oc2ccc(NS(=O)(=O)c3ccccc3)cc2C(=O)N([C@H](C)CO)C[C@@H]1C | 4%
CCCCc1nnc(NC(=O)C(C)Sc2nc(O)c(Cc3ccccc3)c(=O)[nH]2)s1 (stereo not given) | -22%
O=C(CCc1ccccc1)NCc1ccc(F)cc1 | -12%
CC(C)(O)C1=NOC(c2ccccc2)C1 (stereo not given) | 11%
CCN(CC)c1ccc(NC(=O)CCc2nc3cccnc3n2Cc2cccs2)c(C)c1 | -8%
Cc1cc(OC(=O)c2ccc(C(C)(C)C)cc2)c([N+](=O)[O-])c(=O)[nH]1 | -4%
Nc1ccccc1SC1CC(=O)N(c2ccc3c(c2)OCO3)C1=O (stereo not given) | 18%
COC(=O)c1cccc(NC2CC(=O)N(c3ccc(OC)c(OC)c3)C2=O)c1 (stereo not given) | -27%
CCOC(=O)c1ccc(NC(=S)N(CCN(C)C)Cc2cccs2)cc1 | 4%
CCOc1ccc(N(C)C(=O)CCc2nnc3ccc(N4CCCC4)nn23)cc1 | 4%
COc1ccc(-c2[nH]ncc2C2N=C(N)Nc3nc4ccccc4n32)cc1 (stereo not given) | 1%
COC(=O)C1=C(C)NC(=O)CC1c1ccccc1F (stereo not given) | 6%
COc1cccc(CN(C)C(=O)c2cc(S(=O)(=O)N3CCCCCC3)ccc2OC)c1 | 42%[activator]
CCN1C(=O)c2ccccc2Sc2ccc(NC(=O)Nc3cc(C)cc(C)c3)cc21 | 10%
CC1CN(C(=O)COC(=O)c2cc3ccccc3cc2O)CC(C)O1 (stereo not given) | 5%
CCCCNC(=S)N(C)/N=C/c1ccc2c(c1)OCO2 | -14%
COc1cc(C(=O)Cc2nc3ccccc3n2C)cc(OC)c1OC | 1%
CCCOc1c(Cl)cc(C(=O)NC)cc1OC | -12%
CCOc1ccc(C(=O)NCC(=O)OCC(=O)N2C(C)CCCC2C)cc1 (stereo not given) | -9%
Cc1noc(C)c1NC(=O)N(C)C[C@H]1Oc2ccc(NS(=O)(=O)c3ccccc3)cc2C(=O)N([C@H](C)CO)C[C@@H]1C | -4%
N#Cc1ccc(C(=O)OCC(=O)NC(=O)NCc2ccccc2)cc1 | -22%
Cc1cccc(NC(=S)NC(=O)c2cccs2)n1 | -6%
C=CCn1c(C(CC)CC(C)(C)O)n[nH]c1=S (stereo not given) | 7%
COc1cccc(C(C(=O)NC2CCCC2)N(C(=O)c2csnn2)C2CC2)c1 (stereo not given) | -20%
Cc1ccn(CCC(=O)N2CCCC(CCC(=O)N3CCN(c4ccccn4)CC3)C2)n1 (stereo not given) | 4%
O=C(Nc1ccc(Cl)c(S(=O)(=O)N2CCOCC2)c1)c1ccncc1 | -2%
COc1ccc2nc(C)cc(SCC(=O)NNC(=O)COc3ccc(C)cc3)c2c1 | 7%
O=C(COc1ccc(Cl)cc1)N1CCN(C(=O)c2ccccc2F)CC1 | -4%
COCc1cc(C)nc2sc(C(=O)Nc3ccc(OC(F)(F)F)cc3)c(N)c12 | -15%
COC(=O)c1cccc(NC(=S)N2CCN(c3ccccc3F)CC2)c1 | 6%
Cc1ccc(CNC(=O)C2CCN(S(=O)(=O)c3ccc4[nH]c(=O)ccc4c3)CC2)cc1 | -2%
O=C1CCC/C1=C\Nc1ccc(Cl)c([N+](=O)[O-])c1 | 1%
COc1ccc(OC)c(N=c2oc3c(OC)cccc3cc2C(=O)NCc2ccco2)c1 | -24%
COc1cccc2cc(C(=O)NNC(=O)c3ccc(Br)cc3)c(=O)oc12 | -10%
CCC(=O)O[C@@H](OP(=O)(CCCCc1ccccc1)CC(=O)N1C[C@H](C2CCCCC2)C[C@H]1C(=O)O)C(C)C (stereo not given in full) | -11%
CC(=O)N1CCc2cc(S(=O)(=O)CCC(=O)N(C)Cc3ccco3)ccc21 | 18%
O=C(Nc1ccccc1O)N1c2ccccc2Sc2ccccc21 | 4%
Cc1nc2cncnc2n(-c2ccccc2)c1=O | -27%
COC(=O)c1ccc(C)c(NC(=O)CN(c2ccccc2)S(=O)(=O)N(C)C)c1 | -19%
CS(=O)(=O)N(CC(=O)Nc1ccccc1-c1ccccc1)c1ccccc1 | 12%

Gathered by group, the compounds so far with bromine.
SMILES | VDR inh
Cc1ccc(NC(=O)CNCc2cccs2)c(Br)c1 | 11%
N/C(=N\OC(=O)CN1C(=O)c2ccccc2C1=O)c1ccc(Br)cc1 | -7%
O=C(/C=C/c1ccco1)Oc1cc(Br)cc(/C=N/NC(=O)c2ccccc2O)c1 | -12%
CC1CCN(S(=O)(=O)c2cc(C(=O)Nc3ccccn3)ccc2Br)CC1 | -16%
COc1cccc2cc(C(=O)NNC(=O)c3ccc(Br)cc3)c(=O)oc12 | -10%

Continued:
SMILES | VDR inh
C#CCOCCOCCOCCNc1nc(N2CCOCC2)nc(N2CCN(C(=O)[C@H](Cc3cc4ccccc4[nH]3)n3cc([C@@H](N)C(C)CC)nn3)CC2)n1 (stereo not given in full) | 1%
CC(NC(=O)C1CCCO1)c1ccccc1 (stereo not given) | 1%
O=[N+]([O-])c1ccc(Oc2cccc(C(F)(F)F)c2)nc1 | ?
COc1ccc(C2=NS(=O)(=O)N(C)C(C(=O)NCc3ccc4c(c3)OCO4)=C2)cc1OC | -6%
CCCN1CCN(CCCNC(=O)Cn2ncc3c4ccccc4n(C)c3c2=O)CC1 | 17%
c1ccc(Cn2nnc3c(N4CCCCC4)ncnc32)cc1 | 8%
CCOC(=O)c1c(C)[nH]c(C(=O)N2CCN(C(=O)OCC)CC2)c1C | -4%
Cc1c(NC(=O)C(C)OC(=O)c2nc(Cl)ccc2Cl)c(=O)n(-c2ccccc2)n1C (stereo not given) | -2%
Cc1cc(NC(=O)Cn2nc(C)c([N+](=O)[O-])c2C)no1 | -1%
O=C1CC(=C(c2ccccc2)c2ccccc2)C(=O)N1CCCCN1CCN(c2ccccc2)CC1 | 9%
O=C(c1ccco1)N1CCC[C@@]2(CCN(Cc3ccccc3)C2)C1 | -7%
N#Cc1c(Nc2ccccc2)sc(C(=O)C2CC2)c1N | 4%
O=C(COC(=O)c1ccccc1[N+](=O)[O-])NC(=O)c1ccccc1 | -2%
CCOc1ccc(C(=O)CCC(=O)N2CCN(c3ccccc3O)CC2)cc1 | -10%
COc1ccc(OC)c(S(=O)(=O)n2ccnc2C(C)C)c1 | 9%
O=C(C1CC1)N1CCc2cc(Br)cc(S(=O)(=O)N3CCOCC3)c21 | -4%
COc1ccc(Nc2nc(N)c(C(=O)c3ccc(F)cc3)s2)cc1 | 1%
